nsP2pro inh: Primary qHTS for inhibitors of NSP2Pro chikungunya virus (CHIKV); Polyprotein P1234 (Chikungunya virus (strain S27-African prototype)), Q8JUX6; FRET peptide cleavage, nsP2pro, fluorescence 1 h; Potency, µM (doses to about 24.9 µM), for the others: at the highest dose activity change, negative = inhibition, hits mostly inhibitors; hit rate 1.1% among 31,000; active means well fitted inhibition curve with a large enough effect; inconclusive means small, poorly fitted or top-dose-only effect; inactive means no such curve, though single readings can be large or run the other way; note: nearly all actives have a fitted effect of over 60% in size; a reference inhibitor and vehicle were the controls
Active calls of the source: *; i = inactive; ? = inconclusive; & = joins results of further samples; [ ] = remark or other dose. % is set by controls: 0 for no effect and ±100 for the full control effect; potency is the fitted concentration of half-maximal effect. Some of the compounds tested; count on the stated rates, not on these rows.

| canonical_smiles | nsP2pro inh |
| --- | --- |
| CCOC(=O)[C@H](CS)NCCN[C@@H](CS)C(=O)OCC | 11µM* |
| Cc1ccc(CCC(=O)N2C[C@@H](CN3CCOCC3)[C@@H](CO)C2)cc1 | i |
| C[S+](=O)([O-])N1CCC2(C1)N=C(c1ccccn1)C(=O)N2 (stereo not drawn) | ? |
| COCc1cc(=O)n(CC(=O)NCc2ccc(OC)cc2)c(N2CCOCC2)n1 | i |
| Cc1cccc(-c2nnn3c2nc(NCc2ccccc2)c2ccccc23)c1 | -22% |
| COc1ccc(-c2nc3cnccn3c2NCCC(=O)N2CCCC(C)C2)cc1 (stereo not drawn) | i |
| N#Cc1ccc(-c2nc(NCc3ccc(-c4ccnc(C(F)(F)F)c4)cc3)c3ccccc3n2)cc1 | -6% |
| O=C(/C=C/c1ccc(O)cc1)OC[C@]12O[C@H]1[C@@H](O)[C@@H]1C=CO[C@@H](O[C@@H]3O[C@H](CO)[C@@H](O)[C@H](O)[C@H]3O)[C@@H]12 | -2%[10 µM] |
| COc1ncccc1-c1nc(-c2c(C)noc2C)cc2cc(CN(C)C)oc12 | 5%[39.2 µM] |
| Cc1nn(CCC#N)c(C)c1[C@@H]1C=C[C@@H](NC(=O)c2cccs2)C1 | ? |
| NCC(=O)N[C@H]1CN(c2nccc(C(F)(F)F)n2)C[C@@H]1C1CC1 | i |
| CC(=O)N1CCN(Cc2ccccc2-c2cccnc2)CC1 | -7%[39.2 µM] |
| O=C1COCC2(CN1)CN(C(=O)c1ccc(Cl)cc1)C2 | -9%[39.2 µM] |
| Cc1cc(C)n(-c2nc3ccccc3nc2N2CCN(c3cccc(C)c3C)CC2)n1 | -13% |
| CCC(=O)N1CCc2cc(Br)cc(S(=O)(=O)CCC(=O)N3CCN(c4ccc(OC)cc4)CC3)c21 | -18% |
| C=C[C@H]1CN2CC[C@H]1C[C@@H]2CNC(=O)N1CCOCC1 | 0%[39.2 µM] |
| COCc1nn(CC(=O)NC(C)Cc2cc(C)[nH]n2)c(=O)n1-c1ccccc1 (stereo not drawn) | -1% |
| CC(C)CCC1(O)C(=O)C(C)(C)C(O[C@@H]2O[C@H](CO)[C@@H](O)[C@H](O)[C@H]2O)C(C)(C)C1O (stereo partly drawn) | 45%[10 µM] |
| COc1cccc(CN(C(=O)c2oc3cc(C)ccc3c2C)C2CCS(=O)(=O)C2)c1 (stereo not drawn) | -16% |
| Cc1nnsc1C(=O)N[C@H]1CCN(C(=O)c2ccco2)[C@H](C(=O)N[C@H](Cc2c[nH]c3ccccc23)C(N)=O)C1 | -25% |
| CCc1ccc(CNC(=O)Cn2nc(C)c3nn(-c4ccc(Cl)cc4)c(C)c3c2=O)cc1 | -23% |
| C=C(C)C1Cc2c(ccc3c2OCC(c2ccc(O)cc2O)C3)O1 (stereo not drawn) | 60%[activator] |
| Cc1cc2nc3c(=O)[nH]c(=O)nc-3n(C[C@H](O)[C@H](O)[C@H](O)COP(=O)(O)OP(=O)(O)OC[C@H]3O[C@@H](n4cnc5c(N)ncnc54)[C@H](O)[C@H]3O)c2cc1C | -8%[10 µM] |
| CC12CCC(OC3OC(CO)C(O)C(OC4OC(CO)C(O)C(O)C4O)C3O)CC1CCC1C2CCC2(C)/C(=C3/COC(=O)C3)CCC12O (stereo not drawn) | 0%[10 µM] |
| O=C(c1ccc(-c2cnc3c(O)cccc3c2)cc1)N1CCNCC1 | i |
| CCn1nc(C)cc1S(=O)(=O)N[C@H]1[C@H]2CCO[C@H]2[C@@H]1N1CCCCC1 | i |
| COc1ccc(C[C@H](NC(=O)[C@@]2(O)C[C@@H](O)[C@H](O)[C@@H](NS(=O)(=O)c3cccc(C(F)(F)F)c3)C2)C(N)=O)cc1 | i |
| Cc1ccc(NS(=O)(=O)c2ccc3c(c2)CCN(C(=O)C(F)(F)F)C3)cc1C | 0% |
| COCC1CN(C2CCC2)CC12CCN(S(=O)(=O)c1cnc[nH]1)CC2 (stereo not drawn) | -7% |
| Cc1ccc(Oc2c(C(F)(F)F)oc3cc(OCC(=O)NC4CCCCC4)ccc3c2=O)cc1 | -28% |
| N#Cc1nc(-c2cccc3ccccc23)oc1NC1CNC1 | i |
| CCOCCCn1c(=N)c(C(=O)NCc2cccnc2)cc2c(=O)n3ccccc3nc21 | -12% |
| CC(C)OC(=O)N1CCC(COc2cnc3c(ccn3CC(N)=O)c2)CC1 | 2%[39.2 µM] |
| COc1ccccc1NC(=O)N(Cc1nnc2n1CCCCC2)c1ccc(F)cc1 | -21% |
| Cc1cccc(N2CCN(c3ccc(NC(=O)c4ccccc4)cc3C(=O)O)CC2C)c1 (stereo not drawn) | ? |
| COc1ccccc1CNc1cc(-c2ccccc2)nc2nncn12 | 28% |
| O=C(Nc1ccc2ccccc2c1)Nc1nnc(-c2ccccc2Cl)s1 | 2% |
| C=CC1(C)C=C2CCC3C(C)(C)C(O[C@@H]4O[C@@H](CO)[C@H](O)[C@H]4O)CCC3(C)C2CC1O[C@@H]1O[C@H](C)[C@H](O)[C@H](O)[C@H]1O (stereo partly drawn) | ? |
| Cc1ccc(C)c(OC2=NS(=O)(=O)c3ccccc32)c1 | -11% |
| CCCCCCCCN=C(N)NC(N)=NCc1ccc(Cl)c(Cl)c1 | 98%[activator] |
| Cc1cc(C)nc(NC(=S)N2CCN(c3ccc(N4CCCC4)nn3)CC2)c1 | -5% |
| COc1cccc(NC(=O)c2sc3nc(C)c(C(=O)Nc4ccc(C)cc4C)c(-c4sccc4C)c3c2N)c1 | 5% |
| CCCC[C@@H](C=O)NC(=O)[C@H](CC(C)C)NC(=O)[C@H](CC(C)C)NC(C)=O | -8%&-8% |
| O=C1CCC2(C(=O)NCCN3CCOCC3)CCCC=C2N1C1CCCC1 (stereo not drawn) | i |
| CC1(C)[C@H]2C[C@H](C/C=C\CCCC(=O)O)[C@@H](NC(=O)c3csc4ccc(O)cc34)[C@@H]1C2 | 29% |
| Cc1c(C(=O)Nc2ccc(Br)cc2F)oc2ccc(S(=O)(=O)N3CCC4(CC3)OCCO4)cc12 | -18% |
| O=S(=O)(c1ccccc1Cl)N1CCC(c2noc(COCc3ccccc3)n2)CC1 | 1% |
| O=S1(=O)N=C(Oc2ccccc2Br)c2ccccc21 | i |
| CCCCCCCCCCCCCCCCC(C(=O)O)C(O)(CC(=O)O)C(=O)O (stereo not drawn) | 33%[activator] |
| Cc1c(CNC(C)c2ccccc2)c(C(=O)O)c(C)n1Cc1c(F)cccc1Cl (stereo not drawn) | -16% |
| CC1=C2C3OC(=O)C(C)C3(O)CCC2(C)CCC1=O (stereo not drawn) | 41% |
| Oc1ccc(CNCc2ccc3c(c2)OCO3)c2cccnc12 | i |
| COc1ccccc1-c1cc(Nc2cccc(CS(N)(=O)=O)c2)ncn1 | 9% |
| O=C(c1csc(-c2cccs2)n1)N1CCC2(CCCO2)CC1 | ? |
| Cc1ccc(-n2c(=O)c3ccc(C(=O)NCc4ccco4)cc3n(CC(=O)Nc3ccc(C)c(F)c3)c2=O)cc1 | -6% |
| O=C(CCCc1cccs1)N1CCCC(O)(CN2CCCC2)C1 (stereo not drawn) | i |
| COc1ccc(CNC(=O)c2cnn(-c3ccc(OC)cc3)c2C2CCN(C(=O)OC(C)(C)C)CC2)cc1 | -12% |
| C/C=C(\C)C(=O)OC[C@H]1O[C@H](O[C@H]2O[C@H](CO)[C@@H](O)[C@H](O)[C@H]2O[C@@H]2O[C@H](CO)[C@@H](O)[C@H](O)[C@H]2O)[C@H](O[C@@H]2O[C@H](CO)[C@@H](O)[C@H](O)[C@H]2O)[C@@H](O)[C@@H]1O | -15%[10 µM] |
| COC(=O)N1CCCCC1C(=O)N1CCC2(CC1)c1nc[nH]c1CCN2C (stereo not drawn) | -11% |
| Cn1nc(C2CC2)cc1NC(=O)C(C)(C)C | -6%[39.2 µM] |

The list goes on, overlapping the part above by six compounds.
| canonical_smiles | nsP2pro inh |
| --- | --- |
| Cc1ccc(-n2c(=O)c3ccc(C(=O)NCc4ccco4)cc3n(CC(=O)Nc3ccc(C)c(F)c3)c2=O)cc1 | -6% |
| O=C(CCCc1cccs1)N1CCCC(O)(CN2CCCC2)C1 (stereo not drawn) | i |
| COc1ccc(CNC(=O)c2cnn(-c3ccc(OC)cc3)c2C2CCN(C(=O)OC(C)(C)C)CC2)cc1 | -12% |
| C/C=C(\C)C(=O)OC[C@H]1O[C@H](O[C@H]2O[C@H](CO)[C@@H](O)[C@H](O)[C@H]2O[C@@H]2O[C@H](CO)[C@@H](O)[C@H](O)[C@H]2O)[C@H](O[C@@H]2O[C@H](CO)[C@@H](O)[C@H](O)[C@H]2O)[C@@H](O)[C@@H]1O | -15%[10 µM] |
| COC(=O)N1CCCCC1C(=O)N1CCC2(CC1)c1nc[nH]c1CCN2C (stereo not drawn) | -11% |
| Cn1nc(C2CC2)cc1NC(=O)C(C)(C)C | -6%[39.2 µM] |
| Cc1ccc(NS(=O)(=O)c2cccc(Cl)c2)cc1C | 2% |
| CC(C)NC(=O)c1onc(-c2ccc(Cl)cc2)c1[C@H](C)O | -10%[39.2 µM] |
| Cc1cc2c(s1)c1cnn(Cc3c(F)cc(F)cc3F)c(=O)c1n2C | -3% |
| O=C1CC(c2ccccc2)Oc2ccccc21 (stereo not drawn) | -3% |
| COc1ccc(Nc2nc3ccc(C)cc3nc2-n2nc(C)cc2C)cc1Cl | -19% |
| Cc1ccccc1NC(=O)c1ccc(CNS(=O)(=O)c2ccc3c(c2)C(C)(C)C(=O)N3C)cc1 | -18% |
| Cc1cc(C)c2c(=O)cc(C(=O)Nc3ccc(S(=O)(=O)Nc4onc(C)c4C)cc3)oc2c1 | 58%[activator] |
| COCCc1noc(CC2CCOC3(CCN(C(=O)C4CCOCC4)CC3)C2)n1 (stereo not drawn) | i |
| NS(=O)(=O)c1cc(Cl)c(Cl)c(S(N)(=O)=O)c1 | -1%&-4% |
| C[C@@H]1O[C@@H]1P(=O)(O)O | -2%[10 µM] |
| CC(=O)N1CCC(c2nnc3n2C(C(=O)Nc2ccc(C)cc2)CC3)CC1 (stereo not drawn) | 4% |
| N[C@@H](CSCCCO)C(=O)O | -7%[10 µM] |
| O=C(c1c[nH]c2ccc(S(=O)(=O)Nc3ccccc3F)cc2c1=O)N1CCCCCC1 | -15% |
| CC1(C)C[C@H](O)C[C@@]2(C)[C@H]1[C@H](O)C=C1COC(=O)[C@@]12O | -6% |
| CN(C)C(=O)Oc1ccc[n+](C)c1 | -22% |
| c1c(-c2nc(C3CCOC3)no2)sc2c1CCCC2 (stereo not drawn) | i |
| CC1(C)C=CN2C(=O)C3=CCCN3C(=O)[C@@H]2C[C@@]12Nc1ccccc1C2=O | ? |
| Cc1cccc(N(C)C(=O)CN(C)S(=O)(=O)c2ccc3[nH]c4c(c3c2)CCCC4)c1 | ? |
| COc1ccc(S(=O)(=O)Nc2cc3c(cc2NCc2ccccc2)n(C)c(=O)n3C)cc1OC | -23% |
| Cc1nc(-n2nc(C)c(Cc3ccccc3Cl)c2C)sc1C(=O)N1CCC(C)CC1 | -27% |
| O=C1COC[C@H]([C@H](O)c2ccc(NC(=O)C3CCCC3)cc2)N1 | 2%[39.2 µM] |
| Cc1ccc(-c2nnc(Nc3cccc(Br)c3)c3ccccc23)cc1S(=O)(=O)N1CCN(C)CC1 | -13% |
| CS(=O)(=O)c1ccc(S(=O)(=O)N2CCC3(CCCNC3)C2)cc1 (stereo not drawn) | 5% |
| CN1CC(=O)N(C2CCNCC2)Cc2c(NCCCO)ncnc21 | ? |
| CCCOc1ccccc1C(C)Nc1nc(-c2cccnc2)nc2c1CNC2 (stereo not drawn) | i |
| CN(Cc1ccc2nccnc2c1)C(=O)c1cc(COc2ccc(F)cc2F)on1 | -3% |
| CCc1ccc(-c2nc(CSCC(=O)NCCc3ccccc3)c(C)o2)cc1 | -7% |
| CNc1nc(Cc2ccccc2)nc2c1CCNC[C@@H]2C | -3% |
| O=c1[nH]c(CN2CCOCC2)nc2sc3c(c12)CCC3 | 3% |
| CCN1CCN(c2nc3c(S(=O)(=O)c4ccc(C)cc4)nnn3c3ccsc23)CC1 | -13% |
| COc1cc(-c2ccc3ncnc(NCC4CCCO4)c3c2)cc(OC)c1OC (stereo not drawn) | -13% |
| COC(=O)c1c(NC(=O)CCCOc2ccc(C)cc2)sc2c1C(C(=O)OC)CC2 (stereo not drawn) | 2.1µM* |
| CC(NC(=O)Cn1c(-c2cccs2)cc2cc(F)ccc21)c1ccccc1 (stereo not drawn) | -9% |
| COc1ccc(OC)c(C(=O)CSc2ncc3c(n2)-c2ccccc2N(Cc2ccccc2C)S3(=O)=O)c1 | -11% |
| COc1ccc(C[C@H](N)C(=O)N[C@H]2[C@@H](O)[C@H](n3cnc4c(N(C)C)ncnc43)O[C@@H]2CO)cc1 | -4%&3% |
| N#Cc1no[n+]([O-])c1-c1ccccc1 | i |
| CN1Cc2ccc(NCc3ccccc3)nc2C(C)(C(=O)NCc2cccs2)C1 (stereo not drawn) | 5%[39.2 µM] |
| CC(C)NCC(O)c1ccc(O)c(O)c1 (stereo not drawn) | ? |
| CCS(=O)(=O)N1CCc2cc(C(=O)N3CCN(c4ccccc4OC)CC3)ccc21 | -18% |
| O=C(NCc1ccccc1)C(=O)Nc1ccc2nc3n(c(=O)c2c1)CCCCC3 | -20% |
| O=c1c2oc3ccccc3c2n(Cc2ccccc2F)c(=O)n1Cc1ccccc1 | -24% |
| COc1ccccc1CNC(=O)c1cc2ccc3ccc(C)[nH]c3c2n1 | -6% |
| Nc1ncccc1CNC(=O)[C@H]1CCC[C@H](O)C1 | -5% |
| Fc1cccc(CNc2nc(-c3ccccc3C(F)(F)F)nc3ccccc23)c1 | i |
| O=C(Cn1c(=O)n(Cc2ccc3c(c2)OCO3)c(=O)c2ccccc21)Nc1cccc(Cl)c1 | 1% |
| COC(=O)COc1ccc2oc(-c3ccc(OC)cc3)cc(=O)c2c1 | -21% |
| CN(C)CCNc1cc(-c2ccc3ccccc3n2)c2cc[nH]c2n1 | 60%[activator] |
| O=C1CO[C@H]2CCN(CCCc3ccccc3)CC[C@@H]2N1c1ccccc1 | 2%[39.2 µM] |
| Cc1cccc(CC(=O)Nc2c(C(=O)Nc3cccc(F)c3)oc3ccccc23)c1 | -24% |
